High-throughput results: PubChem BioAssay, Southern Research Specialized Biocontainment Screening Center
Mtb bLac sens: beta-lactam sensitization of Mtb H37Rv. inhibition, % at 25 µM. M. tuberculosis H37Rv growth with meropenem, percent inhibition; hits of this screen are not shown here. 330,000 compounds, 0.27% hits. AID 434955;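 active means about 74% or more and at least 40 points above the plate without the antibiotic, then above 30% in a dose series; inconclusive means first-round hits that could not be retested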;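 further: growth measured after seven days incubation then overnight dye step; 0% = bacteria only wells and 100% = bacteria with antibiotic; twin plates without the antibiotic show which effects depend on it; some results filed as inactive read as strong as hits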
The depositor's hits bear a star; u = inconclusive; & = joins results of further samples.

entry	structure	Mtb bLac sens
1	CCN(C[C@H]1N[C@@](CC)(C(=O)OC)[C@H]2C(=O)N(Cc3ccccc3)C(=O)[C@@H]12)S(=O)(=O)c1ccccc1	0.6
2	C[C@]12CC[C@H](O)CC1=CCC1C2CC[C@@]2(C)C1CC[C@@H]2OCc1ccccc1 (stereo not given in full)	10.1
3	Cc1ccc(CNC(=O)c2cc(-c3ccccc3C)nn2CC2CC(c3cccnc3)=NO2)cc1 (stereo not given)	-8.5
4	CCOC(=O)c1cccc(C2=CC(=O)C[C@H](c3ccc(OC)c(OC)c3)C2)c1	57.4
5	Cc1ccc(C)c(NC(=O)COC(=O)CC2CC3CCC2C3)c1 (stereo not given)	7.5
6	Cc1cc(=O)oc2cc(OCC(=O)N3CCN(Cc4ccccc4)CC3)ccc12	-10.1
7	COc1ccc(C(=O)OCc2ccc(C)cc2)cc1S(=O)(=O)N1CCOCC1	-7.0
8	COC(=O)[C@]1(C)N[C@H](CN(C)C(=O)Nc2ccc(OC)cc2)[C@@H]2C(=O)N(Cc3ccccc3)C(=O)[C@@H]21	-6.0
9	COc1cccc(C(=O)Nn2cnnc2)c1OC	-2.1
10	Cc1c(C(=O)N2CCN(S(=O)(=O)c3ccccc3)CC2)oc2ccc(Br)cc12	4.6
11	Cc1ccc(S(=O)(=O)N2CCOCC2)cc1NC(=O)COC(=O)/C=C/c1ccc(F)cc1	3.9
12	Cc1ccc(CNC(=O)CCn2cc(-c3ccc(C)cc3)nc2CCN)cc1	-6.8
13	CSCCC(NC(=O)c1ccccc1Br)C(=O)NNC(=O)c1ccco1 (stereo not given)	-6.8
14	CCc1c(C)nc2cc(-c3ccc(Cl)cc3)[nH]n2c1=O	-4.5
15	CC(C)(C)NC(=O)COc1ccc2oc3c(c2c1)CCCC3	-2.4
16	COc1ccc(NC(=O)Nc2ccc3c(c2)C(=O)N([C@H](C)CO)C[C@H](C)[C@@H](CN(C)S(=O)(=O)c2ccccc2)O3)cc1	-8.8
17	COc1ccc(NC(=O)CN2C(=O)NC(C)(c3ccc(C)cc3)C2=O)cn1 (stereo not given)	-5.4
18	CCOc1ccccc1NC(=O)c1ccc(OCC(=O)N2CCOCC2)c(OC)c1	-0.8
19	O=C(CSc1nncs1)NC1CCCCCCC1	-1.6
20	CC1(C(=O)OCC(=O)Nc2ccc(S(=O)(=O)N3CCOCC3)cc2)CC1(Cl)Cl (stereo not given)	0.2
21	COC(=O)[C@]1(C)N[C@H](CN(C)S(=O)(=O)c2ccc(-c3ccccc3)cc2)[C@@H]2C(=O)N(C)C(=O)[C@@H]21	0.0
22	O=C(NC1CC1)c1nc(Cn2ccc([N+](=O)[O-])n2)no1	5.0
23	COc1ccc(S(=O)(=O)N2CCOCC2)cc1C(=O)NC1CCCCCC1	6.4
24	COC(=O)C1=C(c2cccc(OC)c2OC)C[C@@H]2CC[C@H]1N2C	2.2

Shown with each value named: part of the list above.
17. COc1ccc(NC(=O)CN2C(=O)NC(C)(c3ccc(C)cc3)C2=O)cn1 (stereo not given)
  Mtb bLac sens: -5.4
18. CCOc1ccccc1NC(=O)c1ccc(OCC(=O)N2CCOCC2)c(OC)c1
  Mtb bLac sens: -0.8

The results go on:
entry	structure	Mtb bLac sens
25	C[C@H](CO)N1C[C@H](C)[C@@H](CN(C)Cc2ccncc2)Oc2ccc(NC(=O)CCCCCC(=O)Nc3ccccc3N)cc2C1=O	7.9
26	Clc1ccc(OCCCNCc2ccccc2)c2ccccc12	99.9
27	COc1ccc(N2CCN(C(=O)COC(=O)c3c(-c4ccccc4)noc3C)CC2)cc1	-6.8
28	COc1ccc2c(c1)OC[C@H]1[C@H]2N2C(=O)CNC(=O)[C@@]2(C)[C@H]1c1ccccc1	-2.7
29	COc1cc(C)ccc1OCC(=O)Nc1ccccc1N1CCOCC1	-4.6
30	CCN(CC)c1ccc(S(=O)(=O)N2CCCCC2)cc1NC(=O)C1CSC2(C)CCC(=O)N12 (stereo not given)	4.3
31	COc1ccccc1NC(=O)COC(=O)c1cc(C)n(C2CC2)c1C	-2.9
32	O=S(=O)(c1ccc(Cl)cc1)N1CCc2ccccc21	-9.2
33	NS(=O)(=O)c1ccc(NC(=O)COC(=O)Cn2cnc3ccccc3c2=O)cc1	-11.0
34	COCc1c(C(=O)NCCc2ccc(OC(F)F)cc2)oc2ccccc12	5.4
35	CN1CCN(c2ccncc2S(=O)(=O)N2CCCCC2)CC1	u
36	COc1ccc(S(=O)(=O)N2CCOCC2)cc1NC(=O)Cc1ccsc1	-2.8

No new results follow: an excerpt of the list.
entry	structure	Mtb bLac sens
27	COc1ccc(N2CCN(C(=O)COC(=O)c3c(-c4ccccc4)noc3C)CC2)cc1	-6.8
28	COc1ccc2c(c1)OC[C@H]1[C@H]2N2C(=O)CNC(=O)[C@@]2(C)[C@H]1c1ccccc1	-2.7

Quoted at random: 2 records from the list.
entry	structure	Mtb bLac sens
29	COc1cc(C)ccc1OCC(=O)Nc1ccccc1N1CCOCC1	-4.6
20	CC1(C(=O)OCC(=O)Nc2ccc(S(=O)(=O)N3CCOCC3)cc2)CC1(Cl)Cl (stereo not given)	0.2

(listing goes on)
entry	structure	Mtb bLac sens
37	Cc1ccc(C)c(S(=O)(=O)N2CCN(C(=O)[C@@H]3CCCN3C(=O)c3cccs3)CC2)c1	-7.8
38	Nc1nc(SCC(=O)N2CCN(c3ccc(F)cc3)CC2)n[nH]1	-3.2
39	N=C(N)SCCc1cnc[nH]1	-10.5
40	CCOc1ccc(C(=O)CCC(=O)N2CCN(c3ccc(O)cc3)CC2)cc1	-9.9
41	COC(=O)C1=C(c2cccc(OCc3ccccc3)c2)C[C@@H]2CC[C@H]1N2C(=O)NC1CCN(Cc2ccccc2)CC1	u
42	O=C(COC(=O)c1nc(Cl)ccc1Cl)Nc1ccc(Cl)cn1	-0.3
43	CC(C)c1nc2cc(C(=O)N3CCN(c4cnccn4)CC3)ccc2o1	u
44	O=C(C[C@@H]1C/C=C\CC[C@@H](Cc2ccc(F)cc2)C(=O)OC[C@@H]2CCCN2C1=O)N[C@H](CO)Cc1ccccc1	-9.1
45	O=C(Nc1ccccc1C(=O)Nc1ccc(Br)cn1)c1ccccc1Cl	93.4
46	CN(CCCCOc1ccc(F)cc1)Cc1ccccc1	3.6
47	CCOC(=O)c1nn(-c2ccc(F)cc2)c(=O)c(C#N)c1C	1.6
48	O=C(NC1CCCCC1)c1ccc2snnc2c1	-0.5
49	CCOc1ccc(Oc2ccccc2NS(=O)(=O)c2ccc(CCC(=O)O)cc2)cc1	-2.0
50	Cc1ccsc1C(=O)OCC(=O)N1C(C)CCCC1C (stereo not given)	-5.8
51	COc1ccccc1/C=C/C(=O)OCC(=O)Nc1ccc2c(c1)OCO2	4.9
52	COCCCN(C(=O)c1ccc2ccccc2n1)c1c(N)n(Cc2ccccc2)c(=O)[nH]c1=O	1.4
53	CCc1ccc(OCC(=O)NNC(=O)c2cc(S(=O)(=O)N3CCOCC3)ccc2N2CCCC2)cc1	-0.1
54	COC(=O)C1=C(c2c(C)noc2C)C[C@@H]2CC[C@H]1N2C(=O)NCc1ccc2c(c1)OCO2	2.5
55	CCCCc1nnc(NC(=O)c2ccc(S(=O)(=O)N3CCOCC3)cc2)s1	1.5
56	O=C(CN1C(=O)NC2(CCCC2)C1=O)OCc1ccccc1F	4.5
57	Cc1noc(C)c1C(=O)OCC(=O)N(C)C1(C#N)CCCCC1	1.6
58	O=C(COC(=O)Cc1cccs1)Nc1cc(S(=O)(=O)N2CCOCC2)ccc1Cl	-1.0
59	Cc1ccc(S(=O)(=O)CCC(=O)Nc2ccccc2N2CCCC2)cc1	3.9
60	CCN(CC)S(=O)(=O)c1cccc(NC(=O)COC(=O)c2cncc(Br)c2)c1	-8.6
61	O=C(NS(=O)(=O)N1CCOCC1)C1=C(N2CCCC2)COC1=O	11.6
62	CC(C)C(NC(=O)CCNC(=O)c1ccccc1Cl)c1nc2ccccc2[nH]1 (stereo not given)	-2.6
63	Cc1ccc(-c2cc(C(=O)N/N=C/c3ccc(Cl)cc3)n[nH]2)o1	-4.6
64	CC(CCC(C)C(C)(C)C)[C@@H]1CC[C@H]2C3C[C@H](OS(O)(=S)=S)[C@H]4C[C@H](OS(O)(=S)=S)[C@@H](OS(O)(=S)=S)C[C@]4(C)[C@H]3CC[C@]12C (stereo not given in full) (tested in a mixture with another compound)	1.6&6.6
65	COCCCn1c(=O)/c(=C\c2ccc(OC(F)F)c(OC)c2)s/c1=C(/C#N)C(=O)NCCOC	2.5
66	O=C(O)C1=CC[C@@H](c2ccc(Cl)cc2)N(S(=O)(=O)c2ccc(Cl)cc2)[C@H]1c1ccc(Br)cc1	2.7
67	CCOc1ccc(C(=O)NCC(=O)NCC(c2ccco2)N2CCCCC2)cc1 (stereo not given)	-0.2
68	COc1cccc(-c2ncc3ccccc3c2COC(=O)c2ccc(C(C)(C)C)cc2)c1	-5.8
69	Cc1ncc([N+](=O)[O-])n1CC(=O)Nc1ccccc1F	-12.7
70	O=C(COC(=O)/C=C/c1ccc(OC(F)F)cc1)NC(=O)NCc1ccccc1	-9.3
71	COc1ccc(-c2c(-c3cc(OC)cc(OC)c3)n(C)c3ccc(-c4cc(F)cc(OC)c4)cc23)cc1	-6.6
72	O=C(CCC(=O)N1CCN(c2ccc(C(F)(F)F)cn2)CC1)c1cccs1	-1.3
73	CC(=O)N1CCN(C(=O)COC(=O)/C=C/c2ccc(C(F)(F)F)cc2)CC1	-2.4
74	COc1ccc(OC)c(/C=C/C(=O)OCC(=O)Nc2nnc(-c3ccccc3)o2)c1	0.1
75	O=C(COC(=O)c1ccccc1OCc1ccccc1Cl)NC1CCS(=O)(=O)C1 (stereo not given)	-1.2
76	CCC(C)c1ccc(S(=O)(=O)N2CCN(C(C)C(=O)NC3CCCC3)CC2)cc1 (stereo not given)	-2.2
77	CNc1snc(C)c1C(=O)OC(C)C(=O)Nc1cccc(C)c1 (stereo not given)	-4.7
78	CC1CC(C)CN(C(=O)C(C)N2CCN(S(=O)(=O)c3ccc(Br)s3)CC2)C1 (stereo not given)	-5.8
79	CC(C)[C@H](NC(=O)c1ccco1)C(=O)OCC(=O)c1ccc(Br)s1	-8.5
80	N#CCC(=O)Nc1ccc(C(=O)OCC(=O)NCc2ccc3c(c2)OCO3)cc1	-2.4
81	CC1CCCC(C)N1C(=O)CSc1nnc(-c2ccco2)n1C (stereo not given)	-5.9
82	CC(=O)c1ccc(NC(=O)c2cccc(NC(=O)c3ccccc3)c2)cc1	-3.7
83	COCCn1c(SCC(=O)Nc2cc(C)on2)nc2cc(Cl)ccc2c1=O	7.5
84	CCC(=O)[C@@]1(C)[C@H](C)C[C@H]2[C@@H]3CCC4=CC(=O)C=C[C@]4(C)[C@H]3[C@@H](O)C[C@@]21C	-4.7
85	Cc1ccc(S(=O)(=O)N2CCOCC2)cc1C(=O)Nc1nc(-c2ccccn2)cs1	87.7
86	Cc1noc(NS(=O)(=O)c2ccc(NC(=O)c3ccc(F)cc3)cc2)c1C	1.7
87	CCN(CC(=O)Nc1ccc(NC(C)=O)cc1)C(=O)c1cc2ccccc2oc1=O	-0.4
88	Cc1ccc(NC(=O)COC(=O)CCC2CCCC2)c(Br)c1	9.6
89	CC1CCCC(C)N1C(=O)CSc1ncccn1 (stereo not given)	-5.9
90	O=C1C=C(c2ccccc2)C[C@@H](c2ccc(Cl)cc2)C1	2.8
91	Cc1ccc(C)c(OCCC(=O)Nc2ccccc2C(=O)NC2CC2)c1	-0.2
92	Cc1sc2nc(CSCC(=O)NC3(C#N)CCCCC3)[nH]c(=O)c2c1C	-6.0
93	CC1Cc2ccccc2N1C(=O)COC(=O)/C=C/c1cccc(F)c1 (stereo not given)	1.9
94	Cc1ccc([C@@H]2CC=C(C(=O)O)[C@H](c3ccc(Br)cc3)N2S(=O)(=O)c2ccccc2C)cc1	-1.1
95	CCOc1ccc(Br)cc1S(=O)(=O)NC1=NCCCCC1	1.2
96	COc1cccc(/C=C/C(=O)N2CC(C)OC(C)C2)c1OC (stereo not given)	-1.4

(cont.)
entry	structure	Mtb bLac sens
97	COc1ccc(CN2CC(=O)N3[C@H]4c5cc(C)ccc5OC[C@@H]4[C@H](c4ccccc4)[C@]3(C)C2=O)cc1	2.7
98	CCN(C[C@H]1N[C@@](C)(C(=O)OC)[C@H]2C(=O)N(C)C(=O)[C@@H]12)S(=O)(=O)c1ccc(F)cc1	-0.6
99	C[C@@H]1CN([C@@H](C)CO)C(=O)Cc2cc(NC(=O)Nc3ccc(C(F)(F)F)cc3)ccc2O[C@@H]1CN(C)S(=O)(=O)c1ccc(Cl)cc1	85.2
100	COC(=O)c1c(-c2ccc(OC)cc2)sc2cc3c(cc12)OCO3	5.6
101	Cc1cc(NC(=O)CSc2nnc(-c3ccccc3F)n2N)no1	2.0
102	COc1ccc2c(-c3ccc(SC)cc3)c(-c3ccc(S(C)(=O)=O)cc3)sc2c1	5.6
103	O[C@@H]1[C@@H](O)C=C2CCN3Cc4cc5c(cc4[C@H]1C23)OCO5 (stereo not given in full)	-0.5
104	O=C(CCNC(=O)c1ccccc1Cl)NN=Cc1ccco1	5.2
105	COc1ccc(CC(=O)NNC(=O)c2cc(C)[nH]n2)cc1	u
106	O=C(COC(=O)c1ccc2ccccc2n1)Nc1ccccc1F	28.0
107	COc1ccc(-c2sc3ccc(N4CCOCC4)cc3c2C#Cc2ccsc2)cc1	0.8
108	CN1CCN(c2ccc(Cl)cc2NC(=O)c2cc(=O)[nH]c3ccccc23)CC1	-1.2
109	COc1ccccc1-c1nnc(SCC(=O)Nc2ccc(N3CCOCC3)cc2)n1N	-10.3
110	COc1ccc([C@@H]2CC=C(C(=O)O)[C@H](c3ccc(C)cc3)N2S(=O)(=O)c2ccc(C)cc2)cc1OC	1.2
111	CCOC(=O)C1=C(COC(=O)/C=C/c2ccc(O)c(OC)c2)NC(=O)NC1C (stereo not given)	3.5
112	CN(CC(=O)Nc1ccccc1Cl)CC(=O)Nc1cccc2ccccc12	-3.0
113	CC1CC(C)CN(S(=O)(=O)c2ccc(C(=O)N(C)Cc3ccccc3)cc2)C1 (stereo not given)	-1.4

Not all compounds are listed; count on the stated rates, not on these rows.
